Compound activity: PubChem, several laboratories
PKD1 kinase inh – blocks activity of human protein kinase D1; PKD1 kinase fluorescence polarization assay; AID 797; 0.056% of 200,000 active; inhibition, %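 (about 10 µM by stock and volumes)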;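 active = inhibition of 50% or more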;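 note: controls were vehicle for no effect and a reference inhibitor for full effect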
GALR2 ag – activates the human galanin receptor 2; O43603; 0.48% of 140,000 active; activation, %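 (tested at 5 µM)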; GALR2-expressing cells, agonist activation read-out;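 active = above mean plus 3 SD of all compounds, about 5% in these data, not always enough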;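 note: 0% = vehicle buffer wells and 100% = reference agonist at full effect; tested in CHO reporter cells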
Target sequence (O43603 whole entry, looked up): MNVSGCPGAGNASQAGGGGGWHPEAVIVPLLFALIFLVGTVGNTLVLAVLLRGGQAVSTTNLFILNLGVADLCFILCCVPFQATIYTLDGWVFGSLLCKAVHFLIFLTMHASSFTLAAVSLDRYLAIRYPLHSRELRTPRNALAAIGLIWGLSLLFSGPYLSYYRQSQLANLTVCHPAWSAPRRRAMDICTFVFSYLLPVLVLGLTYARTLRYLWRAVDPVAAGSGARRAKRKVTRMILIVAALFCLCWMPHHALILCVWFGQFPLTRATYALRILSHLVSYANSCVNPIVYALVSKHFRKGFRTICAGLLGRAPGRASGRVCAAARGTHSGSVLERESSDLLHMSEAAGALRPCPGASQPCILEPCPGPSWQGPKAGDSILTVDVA
INS promoter inh – TRM-6 insulin promoter activity inhibition. TRM-6 cells (human fetal islet line), insulin promoter-eGFP reporter, imaging; reporter expression induced with tamoxifen. inhibition, % at 2 µM. 0.9% of 130,000 active;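 active = inhibition above the mean plus 3 SD, with well images judged a real hit on visual review, cut at about 60% in these data, passing the limit was not always enough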
RGS16-Gao – regulators of human RGS16-Galphao interaction. bead-based flow cytometry RGS16-Galphao binding, fluorescence; actives lie on both sides. 0.38% of 220,000 active. AID 1441. binding response (% of control), % at 10 µM. O15492+P09471;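 active = below 25% or above 175%, edge rows of some plates excepted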;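 note: Galphao activated by GDP with aluminum fluoride before binding; 100% = wells without compound and 0% = beads without RGS; some results beyond the cut were filed as inactive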
Target sequence (O15492 whole entry, looked up): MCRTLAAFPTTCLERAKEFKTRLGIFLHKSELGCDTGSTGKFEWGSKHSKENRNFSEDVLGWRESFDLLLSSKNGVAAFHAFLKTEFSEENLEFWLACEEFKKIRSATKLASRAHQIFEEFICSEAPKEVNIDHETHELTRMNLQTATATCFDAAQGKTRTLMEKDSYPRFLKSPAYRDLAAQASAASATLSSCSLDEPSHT
Target sequence (P09471 whole entry, looked up): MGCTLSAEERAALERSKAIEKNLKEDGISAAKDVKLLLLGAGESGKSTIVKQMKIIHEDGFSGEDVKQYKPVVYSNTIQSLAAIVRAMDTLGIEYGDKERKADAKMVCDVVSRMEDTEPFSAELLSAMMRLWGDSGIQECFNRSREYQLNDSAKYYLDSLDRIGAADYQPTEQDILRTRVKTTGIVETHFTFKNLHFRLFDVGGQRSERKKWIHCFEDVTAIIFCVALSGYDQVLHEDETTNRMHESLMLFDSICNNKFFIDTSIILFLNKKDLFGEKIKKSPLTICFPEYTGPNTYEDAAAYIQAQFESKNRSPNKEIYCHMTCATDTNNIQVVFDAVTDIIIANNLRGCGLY
HSV augment – HSV replication enhancement | HSV replication augmentation in cells, fold increase | 0.005% of 220,000 active | maximum fold increase;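 active = peak rise of 1.5-fold or more in the series; tested in PC3 cells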;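 note: first round at 10 µM; read as green reporter fluorescence; hits show the peak of a series up to 25 µM; 1 = signal of infected wells without compound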
INS promoter inh cell count – recorded beside INS promoter inh, whose call it bears; normalized cell count, %; measured here: cell count, toxicity; reference of the scale not given here;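 cells exposed to compound for 48 h; stained nuclei by imaging scaled within each plate; lower means fewer cells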
HSV augment primary fold – also measured in HSV augment; calls as there; fold increase; compound at 10 µM; measured here: primary screen fold increase 10 uM; tested in PC3 cells;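 GFP signal in the first replicate; 1 = infected wells without compound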
An asterisk follows results filed as active; i = inactive; nt = no result given. Rows are unselected; about 1.3% have a hit in one of these screens.

Molecule	INS promoter inh cell count	PKD1 kinase inh	RGS16-Gao	HSV augment primary fold	GALR2 ag	INS promoter inh	HSV augment
COc1cc(OC)cc(C(=O)N[C@H](C(=O)Nc2nc3ccccc3[nH]2)C(C)C)c1	nt	-2	24	0.68	nt	nt	i
COc1ccc(-c2nsc3c(N4CCN(C(=O)c5ccco5)CC4)ncnc23)cc1	155	-17	53	0.91	-1.4	36	i
O=C(Cn1nnc2ccccc21)N/N=C/c1ccco1	nt	-9	101	1	-0.8	nt	i
O=S1(=O)NC(=NCc2ccco2)c2ccccc21	108	-3	100	0.92	-1.6	16	i
COc1cc(/C=C(/C#N)c2ccc(C)cc2)ccc1Oc1ccc([N+](=O)[O-])cn1	96	0	98	0.87	-0.5	-25	i
CCN(CC)C(=O)CSc1nnc(CNc2ccc(F)cc2)o1	64	-4	103	1	-0.9	-70	i
C/C(=N\O)C(C)(C)Nc1cccc(Br)c1	nt	nt	106	1.1	nt	nt	i
COc1ccc(S(=O)(=O)Cc2ccc(C(=O)N3CCN(c4ccccc4F)CC3)o2)cc1	nt	-18	103	0.84	-2.5	nt	i
O=C(Nc1ccc(-c2nc3ccccc3c(=O)o2)cc1)c1ccco1	nt	-6	139	1.2	-0.4	nt	i
CCN(CC(=O)Nc1cccc(OC)c1)C(=O)c1ccc(C)s1	100	-5	112	0.9	-1.0	23	i
CN1CCN(c2ccc(NC(=O)COc3ccc(Cl)cc3Cl)cc2)CC1	nt	-8	109	0.5	-0.3	nt	i
O=C(CNC(=O)c1cccc(F)c1)N/N=C/c1cc(Br)ccc1OC(=O)/C=C/c1ccco1	122	2	110	0.69	-0.5	-19	i
CCOC(=O)C(C)(C)N(Cc1ccc(C)cc1)S(=O)(=O)c1ccc(Cl)c([N+](=O)[O-])c1	nt	-12	41	0.66	-1.1	nt	i
Cc1nn(C)c(C)c1/C=C/C(=O)c1ccccc1	88	0	97	0.93	-3.0	-36	i
Cc1cccc2cc3c(N)c(C(=O)N4CCc5ccccc54)sc3nc12	95	5	102	1.3	-1.7	-233	i
Cc1ccc(N2CCN(C(=S)c3ccc(-c4cccc([N+](=O)[O-])c4)o3)CC2)cc1	nt	7	98	1	nt	nt	i
N#CCCn1cc(/C=N/O)c(-c2ccc(F)cc2)n1	66	8	100	0.93	-1.8	6	i
COc1ccc(S(=O)(=O)NCc2csc(-c3cccnc3)n2)cc1	nt	-1	104	0.92	-1.9	nt	i
CCOC(=O)N1CCN(C(=O)c2ccc(Cl)c(S(=O)(=O)N3CCOCC3)c2)CC1	nt	-6	104	0.93	-0.6	nt	i
CCCC(=O)Nc1nnc(SCC(=O)N2CCN(c3ccccc3)CC2)s1	nt	nt	104	0.93	nt	nt	i
Nc1nnc(SCC(=O)N2CCN(c3ccccc3)CC2)n1-c1ccccc1	112	-12	103	0.99	-3.8	14	i
N#Cc1ccc(C23CC4(C2)[C@H](CN(CC2CCCCC2)[C@@H]4c2ccccc2)C3c2ccccc2)cc1 (some centres not stated)	nt	nt	90	1	nt	nt	i
O=C(Nc1ccccc1F)C1CCN(C(=O)Cc2ccccc2)CC1	87	-3	63	1.1	-1.1	-19	i
Cc1nn2c(c1-c1ccc(Cl)cc1)N=C(c1ccco1)CC2c1ccccc1 (configuration not stated)	76	-12	86	0.94	-1.9	-34	i
O=C(NCc1cccnc1)C(=O)NCC(c1ccco1)N1CCN(c2ccc(F)cc2)CC1 (configuration not stated)	97	-7	88	1.2	-2.1	-14	i
COC(=O)c1ccc(CSc2nnc(NC(=O)C3CC(=O)N(c4ccc5c(c4)OCCO5)C3)s2)cc1 (configuration not stated)	nt	-16	93	1.1	-0.5	nt	i
O=C1OC(Nc2ccc3ncccc3c2)c2ccccc21 (configuration not stated)	102	0	94	0.72	-2.2	19	i
NNC(=O)c1sc2cc(C(F)(F)F)cnc2c1-c1cccnc1	nt	-6	98	0.91	nt	nt	i
C=C(C)CSc1nc2c(cc1C#N)CCC2	nt	3	96	0.97	-1.1	nt	i
Cc1cc2nc(-c3cccnc3SCC(=O)NC(C)C)[nH]c2cc1C	nt	0	95	0.91	nt	nt	i
Cc1ncc(CO)c(/C=N/NC(=O)c2cc(O)c(O)c(O)c2)c1O	nt	16	80	0.99	nt	nt	i
CCOC(=O)c1[nH]c2c(c1C)C(=O)CC(c1ccc(OCC)c(OC)c1)C2 (configuration not stated)	27	-4	108	0.92	-1.0	48	i
COc1cccc(CC2(CO)CCCN(Cc3cn[nH]c3-c3cc(C)ccc3C)C2)c1 (configuration not stated)	nt	1	106	0.94	nt	nt	i
COc1ccc(-c2onc(C)c2-c2ccc(C(=O)OC(C)C)o2)c(O)c1	79	-3	77	nt	-2.7	-3	nt
COCCCNC(=O)C(=O)N/N=C/c1cc2c(cc1Br)OCO2	nt	8	101	0.91	nt	nt	i
Cc1c(CCOC(=O)c2ccccc2)sc[n+]1Cc1ccccc1	92	14	107	0.98	1.7	-42	i
O=C(CC1C(=O)NCCN1C/C=C/c1ccccc1)NCCc1cccnc1 (configuration not stated)	nt	-4	100	1.4	nt	nt	i
COc1cc(O)oc1C=Nc1ccc(Oc2ccccc2)cc1	nt	-11	82	0.97	-1.6	nt	i
CC(=O)NS(=O)(=O)c1ccc(NC(=O)C(Sc2ccccc2)c2ccccc2)cc1 (configuration not stated)	125	-12	102	0.93	-2.2	0	i
BrC(/C=N/Nc1nc(N2CCOCC2)nc(N2CCOCC2)n1)=C/c1ccccc1	33	-16	103	1	-0.2	-87	i
Cc1nc2ccccc2c(=O)n1CCN1CCOCC1	106	-4	102	1.1	-1.7	38	i
CCOc1ccccc1C(=O)NC(C(=O)OCC(=O)Nc1nnc(-c2ccccc2)o1)C(C)C (configuration not stated)	nt	1	105	0.85	-1.0	nt	i
O=C(O)c1cccc(NC(CNS(=O)(=O)c2ccc(Cl)cc2)c2ccccc2)c1 (configuration not stated)	nt	-5	107	1	nt	nt	i
O=C(NCc1ccccc1)c1cc(S(=O)(=O)N2CCCCC2)ccc1N1CCOCC1	101	1	99	0.94	nt	-35	i
Cc1ccc(/C=C2/CCc3c([nH]c4ccccc34)C2=O)cc1	116	2	94	nt	-1.9	-16	nt
O=C(NCc1ccccc1)C1CCCN(S(=O)(=O)c2cccc3nonc23)C1 (configuration not stated)	76	-1	51	1	-2.2	-67	i
Cc1ccc(-c2cc(C(=O)Nc3ccc(S(=O)(=O)Nc4cc(C)on4)cc3)c3ccccc3n2)c(C)c1	nt	-2	104	0.94	-1.0	nt	i
CCCOc1ccc(Cc2nn[nH]n2)cc1	124	-1	100	1	-2.2	15	i
O=C(NC1=NCCS1)c1ccc(Cl)c(S(=O)(=O)N2CCCC2)c1	151	-5	100	0.92	nt	13	i
CC(C)c1nc(SCC(=O)Nc2cccc(S(N)(=O)=O)c2)n[nH]1	136	5	106	0.94	-1.3	-9	i
c1ccc2nc3c(nc2c1)CCc1nonc1-3	nt	-10	84	0.92	-1.2	nt	i
CS(=O)(=O)N(CC(=O)NC1CCCC1)C1CCCCC1	nt	-4	107	1.1	nt	nt	i
Cc1ccc(/C=N/NC(=O)c2ccc(C(=O)N/N=C/c3ccc(C)s3)o2)s1	84	-8	96	0.82	30*	7	i
CS(=O)(=O)N(CC(=O)N1CCCCC1)Cc1ccc(Cl)cc1	104	-4	100	0.99	1.0	-5	i
COc1cc(NC(=S)N2CCN(CCO)CC2)c(OC)cc1Cl	nt	5	99	0.96	nt	nt	i
Cc1ccsc1C(=O)OCc1csc(-c2ccccc2)n1	126	5	104	0.89	-0.7	27	i
COc1ccc(OC)c(Nc2nc(-c3sc(N)nc3C)cs2)c1	91	-5	99	0.87	-2.2	56	i
O=C(NCC1CCCO1)c1nn2cccnc2c1Cl (configuration not stated)	88	-8	98	0.95	-2.8	27	i
Cc1cccc[n+]1CC(=O)c1ccc2c(c1)OCCO2	nt	-5	100	1.1	-0.2	nt	i
CC(=O)Oc1ccc(C(=O)Nc2nccs2)cc1	nt	6	101	0.91	nt	nt	i

The closing 2 records of the section before come first, to join the parts.
Molecule	INS promoter inh cell count	PKD1 kinase inh	RGS16-Gao	HSV augment primary fold	GALR2 ag	INS promoter inh	HSV augment
Cc1cccc[n+]1CC(=O)c1ccc2c(c1)OCCO2	nt	-5	100	1.1	-0.2	nt	i
CC(=O)Oc1ccc(C(=O)Nc2nccs2)cc1	nt	6	101	0.91	nt	nt	i
Cc1ccc(OCC(=O)Nc2ccc3c(c2)OCCO3)cc1C	126	4	103	0.95	nt	38	i
NCCCCCNC(=O)/C=N\O	nt	-6	96	0.86	-1.0	nt	i
C(=N\N1CCN(C2c3ccccc3-c3ccccc32)CC1)/c1ccccn1	107	-12	100	1	-1.9	3	i
COc1cc(OC)cc(-n2nnnc2SCC(=O)NC2CCCC2)c1	123	3	108	0.97	-1.7	-7	i
CC(C)(C)c1ccc(-c2csc(NC(=O)CN3C(=O)NC4(CCCCC4)C3=O)n2)cc1	104	4	97	0.95	-1.5	2	i
Cc1cc(/C=N/n2cnnc2)c(O)c([N+](=O)[O-])c1	62	-9	99	1.1	-1.5	26	i
Cn1nnc(NC(=S)NC(=O)c2cc3ccccc3o2)n1	nt	nt	91	1.1	nt	nt	i
CCOC(=O)c1cnc2c(OC)cccc2c1N1CCN(c2ccccn2)CC1	nt	5	100	0.95	nt	nt	i
COc1ccc(C2CC(c3ccc(Br)cc3)=NN2C(=O)CSC2=NCCS2)cc1 (configuration not stated)	118	-4	100	1	-1.7	-3	i
O=C(NCc1ccco1)c1ccc2c(c1)CCO2	nt	nt	106	1.1	nt	nt	i
O=C(Nc1ccc(F)c(F)c1)NC1CCCCC1	101	1	93	0.79	-4.2	4	i
Cc1ccnc(SCC(=O)Nc2sc3c(c2C#N)CCC(C(C)(C)C)C3)n1 (configuration not stated)	nt	3	94	0.97	-0.5	nt	i
CCC1C(=O)N(c2nc(C)cc(C)n2)N=C1C (configuration not stated)	110	-3	103	1	-1.7	-4	i
CC(C)N(CCn1c(SCC(=O)N2CC(=O)Nc3ccccc32)nc2ccccc2c1=O)C(C)C	nt	1	98	0.95	nt	nt	i
CC(=O)c1cccc(NC(=S)NNC(=O)c2ccc(C)c([N+](=O)[O-])c2)c1	nt	-3	101	0.85	nt	nt	i
Cc1nc2ccccn2c1C(=O)C(=O)Nc1cc(F)ccc1F	nt	-3	112	0.9	nt	nt	i
Cc1ccc(-n2ncc3c(=O)n(Cc4ccccn4)cnc32)cc1C	83	5	99	0.96	-0.1	11	i
COc1cc(/C=C(\C#N)c2nnc(N3CCOCC3)n2-c2ccccc2)ccc1O	nt	4	104	1.1	-1.2	nt	i
CCOC(=O)c1c(C)[nH]c(C(=O)COC(=O)/C=C/c2ccc(O)c(OC)c2)c1C	149	-5	89	0.82	-1.1	23	i
CCN(CC)CCn1c(/N=C/c2cc(Br)ccc2O)nc2ccccc21	133	2	97	1	-0.5	-149	i
CCOc1ccccc1OCC(=O)Nc1ccc(N2CCCCC2)cc1	120	1	98	1	-0.8	-419	i
O=C(Nc1ccncc1)c1ccc2ccccc2c1	80	2	63	1.1	nt	20	i
Cc1nn(S(=O)(=O)c2cccc([N+](=O)[O-])c2)c(C)c1Br	63	7	89	1.1	nt	-50	i
Cc1nnsc1C(=O)Nc1cc(Cl)ccc1Cl	92	-4	108	0.88	-2.4	56	i
CCOC(=O)CN(C(=O)CNC(=O)c1cccs1)C(C(=O)NC1CCCC1)c1ccncc1 (configuration not stated)	162	13	111	0.89	nt	13	i
CCOc1ccc(S(=O)(=O)/N=C(\N)c2ccccc2)cc1	nt	nt	101	1.2	nt	nt	i
CCC(CCC(=O)Nc1ccc(S(N)(=O)=O)cc1)C(=O)O (configuration not stated)	139	1	103	1.4	-0.8	-11	i
Nc1n[nH]c(-c2ccc(F)cc2)n1	nt	1	101	0.7	0.7	nt	i

Rewritten with each value named: part of the list above.
smiles: Cc1ccnc(SCC(=O)Nc2sc3c(c2C#N)CCC(C(C)(C)C)C3)n1 (configuration not stated)
  INS promoter inh cell count = nt
  PKD1 kinase inh = 3
  RGS16-Gao = 94
  HSV augment primary fold = 0.97
  GALR2 ag = -0.5
  INS promoter inh = nt
  HSV augment = i

smiles: Cc1cc(/C=N/n2cnnc2)c(O)c([N+](=O)[O-])c1
  INS promoter inh cell count = 62
  PKD1 kinase inh = -9
  RGS16-Gao = 99
  HSV augment primary fold = 1.1
  GALR2 ag = -1.5
  INS promoter inh = 26
  HSV augment = i
